RVFV N-RNA inh = blocks Rift Valley Fever Virus nucleoprotein binding to RNA; P21700; % bound, % (concentration not given with the values); 20,000 compounds, 0.1% hits; RVFV N-RNA binding, fluorescence polarization; stronger effect = lower value; AID 651828;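 active = between 0 and 58% in either replicate with normal brightness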;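 note: 100 nL library stock added to about 12 µL; 100% = protein and probe without compound and 0% = probe alone; numbers are from one replicate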
Target sequence (P21700 whole entry, looked up): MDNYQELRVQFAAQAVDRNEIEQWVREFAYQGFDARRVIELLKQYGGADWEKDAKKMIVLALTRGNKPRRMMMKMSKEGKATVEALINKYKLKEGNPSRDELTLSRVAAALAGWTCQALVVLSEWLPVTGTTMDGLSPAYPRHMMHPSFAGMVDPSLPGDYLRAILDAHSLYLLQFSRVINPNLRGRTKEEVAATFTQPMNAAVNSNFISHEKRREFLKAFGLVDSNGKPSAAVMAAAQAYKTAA
An asterisk follows results filed as active; & = joins results of further samples. The list is partial, so the mix of outcomes need not match the whole.

item	molecule	RVFV N-RNA inh
1	CC(=O)N1C=Cc2ccccc2C1c1c[nH]c2ccccc12 (centres undefined)	98.6
2	CC(=O)Nc1ccc(NC(=O)CN(CCc2ccccc2)S(C)(=O)=O)cc1	97.2
3	CC1(C)CC(=O)C2=C(C1)NC(=O)C(C#N)C2c1ccccc1 (centres undefined)	104.4
4	NC(N)=NN=C1CCCCC1	107.6
5	CC(C)=NOC(=O)c1scc(S(C)(=O)=O)c1Cl	87.1
6	O=C1c2cccc3c(S(=O)(=O)N4CCOCC4)ccc(c23)N1C(=O)C1CCCCC1	94.6
7	Cc1ccc(CNS(=O)(=O)c2ccc(C(C)(C)C)cc2)n1C	95.7
8	CCOc1cccc(C(=O)Nc2ccccc2C(=O)OC)c1	112.9
9	N#C/C(=C\C=C\c1ccccc1)C(N)=S	98.3
10	COC(=O)Cc1cc(=O)n(-c2ccccc2)[nH]1	91.0
11	NS(=O)(=O)c1cccc2c1c([N+](=O)[O-])cc1nc(O)c(O)nc12	91.6
12	O=C(Cc1cccs1)Nc1scc(-c2ccccc2)c1C(=O)NCc1ccco1	95.8
13	FC(F)(F)c1ccccc1-c1ccc(-c2nnc(-c3ccco3)o2)o1	95.8
14	Cc1ccc(Cn2c(CO)cnc2SCC(=O)N2CC(C)OC(C)C2)cc1 (centres undefined)	79.4
15	O=C(Nc1c(Cl)cccc1Cl)N1CCOC12CCCCC2	96.7
16	Cc1ccc(C(=O)CS(C)(=O)=O)cc1	95.4
17	Cc1onc(-c2c(Cl)cccc2Cl)c1/C(N)=N/OC(=O)C1CC1	93.0
18	Cc1nnc(Nc2ccccc2)n(N)c1=O	98.6
19	COc1ccc(N2CC(NC(=O)NCCn3c(C)cc4ccccc43)CC2=O)cc1OC (centres undefined)	89.2
20	CCOc1cc(C)[nH]n1	101.2
21	NC(=O)c1ccsc1NC(=O)CSc1ccccc1	88.9
22	Nc1ccn([C@@H]2O[C@H](CO)[C@@H](O)C2(F)F)c(=O)n1	93.2
23	S=c1[nH]nc(SCc2ccccc2)s1	89.7
24	CCSc1nnc(-c2ccncc2)n1Cc1ccccc1	96.4
25	CC1=C(C(=O)O)N2C(=O)[C@@H](NC(=O)C(N)c3ccccc3)[C@H]2SC1 (some centres undefined)	97.1
26	C=CCN1C(=O)/C(=C\c2cc(OC)c(O)c(OC)c2)SC1=S	93.0
27	Cc1ccc(S(=O)(=O)CCSc2nccn2C)cc1	90.3
28	OC(C#Cc1ccccc1)c1ccco1 (centres undefined)	97.8
29	Nc1nc(CSc2nnc(-c3ccccc3O)n2Cc2ccccc2)cs1	91.4
30	N#C/C(=C\c1ccc(-c2cc(C(F)(F)F)cc(C(F)(F)F)c2)o1)C(=O)NCCc1c[nH]c2ccccc12	102.9
31	O=C(CNC(=O)c1ccc(-n2cnnc2)cc1)Nc1ccc(N2CCCCC2)cc1	94.3
32	Cc1ccc(C)n1-c1ccsc1C(=O)O	76.5
33	CC(C)(C)n1ncc2c(=O)n(NC(=O)/C=C/c3ccccc3)cnc21	99.4
34	CCc1nc(SCC(=O)N2c3ccccc3Sc3ccccc32)n[nH]1	96.1
35	COCCOc1cc(C)nc(N2CCOCC2)n1	99.0
36	Cc1ccc(S(=O)(=O)c2nc(-c3ccccc3)oc2S(=O)(=O)c2ccc(C)cc2)cc1	94.7
37	CCOC(=O)C(CC)Sc1nnc(NC(=O)c2ccc3c(c2)OCO3)s1 (centres undefined)	101.4
38	Oc1cc2c(c(Cl)c1O)CCNCC2c1ccccc1 (centres undefined)	91.9
39	CCS(=O)(=O)c1nc2ccccc2n1CC(=O)N(C)c1ccccc1	88.8
40	Brc1ccc(-c2ncc3ccccn23)cc1	95.4
41	O=C(NC1=NCCS1)c1cc2c(s1)CCCCCC2	111.5
42	CCOC(=O)c1c(NC(=O)CSc2nnc(-c3ccccc3)o2)sc2c1CCCC2	89.3
43	COC(=O)NC1C2CC3CC(C2)CC1C3 (centres undefined)	95.8
44	COc1ccc(Cl)c2sc(N3CCN(C(=O)c4ccco4)CC3)nc12	105.4
45	O=C(Nc1cc(Cl)cc(Cl)c1)C1CCCC1	95.4
46	O=c1cccc(-c2ccc(O)cc2)o1	83.3
47	Cc1ncoc1C(=O)Nc1ccc(C(C)C)cc1	91.5
48	COC(=O)c1cc(SC#N)ccc1N	100.8
49	CN(C)S(=O)(=O)Nc1cccc(-c2cn3c(n2)SCC3)c1	95.7
50	Nc1ccc(S(=O)(=O)N2CCCCC2c2cccnc2)cc1 (centres undefined)	92.8

(list continues)
item	molecule	RVFV N-RNA inh
51	COC(=O)c1cc(OC)c(Br)c(OC)c1	94.6
52	O=P(O)(O)C(Cl)(Cl)P(=O)(O)O	96.1&98.2
53	COc1ccc(S(=O)(=O)N(CCO)c2ccccc2CN(C)C/C=C/c2ccc(Cl)cc2)cc1	95.8
54	Cc1n(O)c2c(NO)ccc(N=O)c2[n+]1[O-]	98.3
55	COc1ccc(-c2nc(SC(C)C(=O)O)c3c(=O)n(C)c(=O)n(C)c3n2)cc1 (centres undefined)	95.7
56	COc1nc(C)nc(N/C=C(\C#N)C(=O)C2CC2)n1	98.8
57	CCc1cc(C=Nc2ccccc2)c(O)s1	92.0
58	O=C(O)COc1ccccc1/C=C1/SC(=S)N(NC(=O)c2ccco2)C1=O	91.4
59	O=C(Nc1cccc(Oc2ccc3c(c2)C(=O)NC3=O)c1)c1ccc(Br)o1	98.8
60	CC(C)C1NC(=O)N(C2CCCCC2)C1=O (centres undefined)	92.7
61	O=C(OCc1ccccc1Cl)c1cc(=O)[nH]c2ccccc12	90.2
62	C#Cc1cccc(NC(C)=O)c1	96.2
63	CCOC(=O)c1nn(-c2ccc(C)cc2)c(=O)cc1OCC(=O)N1CCN(c2ccccc2)CC1	108.8
64	Cc1cc(C)c(S(=O)(=O)Nc2ccc3c(c2)OCO3)c(C)c1	100.0
65	Cc1scc(C(=O)NCC2CCCCC2)c1C	95.9
66	CCC(SC1=N/C(=C/c2ccccc2)C(=O)N1c1ccccc1)C(=O)Nc1cc(C)on1 (centres undefined)	93.1
67	CCC(=O)/C(C)=C/c1ccco1	90.6
68	C=CCc1ccccc1OCC(O)CNC(C)C (centres undefined)	92.1&94.3
69	C=C1CC2C3C=C(C)C4=CC(=O)CC[C@]4(C)C3CC[C@]2(C)[C@@]1(OC(C)=O)C(C)=O (some centres undefined)	97.6
70	CCCc1cc(=O)oc2cc(C)c(CN3CCCC3)c(O)c12	91.7
71	CCOC(=O)c1c(C)nn(-c2ccc(N3C(=O)CCC3=O)cc2)c1C	96.7
72	CCN(CC)C(=O)Oc1ccc2c(C)c(-c3ccc(OC)cc3)c(=O)oc2c1	91.0
73	CCN1C(=O)c2cccc3c(S(=O)(=O)N4CCc5ccccc54)ccc1c23	87.8
74	CSc1nc(C)cc(Oc2ccccc2)n1	97.0
75	Cc1nn(C)c(=O)c2noc(/C=C/c3ccsc3)c12	99.0

Some of these compounds in order of length of the SMILES, high to low.
item	molecule	RVFV N-RNA inh
64	Cc1cc(C)c(S(=O)(=O)Nc2ccc3c(c2)OCO3)c(C)c1	100.0
75	Cc1nn(C)c(=O)c2noc(/C=C/c3ccsc3)c12	99.0
52	O=P(O)(O)C(Cl)(Cl)P(=O)(O)O	96.1&98.2

The list continues.
item	molecule	RVFV N-RNA inh
76	CCNC(=S)N1CCN(CC(=O)Nc2cc(Cl)cc(Cl)c2)CC1	96.8
77	O=C(c1cnn2cc(Br)cnc12)N1CCCc2ccccc21	107.9
78	CCCCN=C1CCCc2ccccc2N1	103.4
79	CCN(CC)C(=O)CSc1ncnc2c1cnn2-c1ccccc1	99.5
80	CCSC1=N/C(=C\c2ccc(N(C)C)cc2)C(=O)S1	106.1
81	NC(=O)C1(Nc2ccccc2)CCCCC1	96.3
82	c1ccc(Cn2c(Nc3ccccc3)nc3ccccc32)cc1	90.0
83	COc1ccc(CCN2C(=O)CNC2=S)cc1	95.4
84	CCCCOc1ccc(C(=O)NC2CCN(C)CC2)cc1	90.9
85	O=C(c1c(F)cccc1F)N1CCN(C/C=C/c2ccccc2)CC1	88.8
86	CC1(C)CN(C(=S)Nc2ccc(F)cc2F)C1=O	100.5
87	CCOc1ccccc1N(CC(=O)NC)S(C)(=O)=O	100.2
88	NC(=O)CP(=O)(c1ccccc1)c1ccccc1	88.2
89	COc1ccc(NS(=O)(=O)c2ccccc2)cn1	96.9
90	Cc1ccc(SC(C)C(=O)NCC(C)C)cc1 (centres undefined)	102.1
91	COc1ccc(-n2c(=O)[nH]cc(C(=O)N3CCCc4ccccc43)c2=O)cc1	97.9
92	CCOc1ncnc2ccc(Br)cc12	90.9
93	O=c1oc(Cl)c(Cl)c2ccccc12	86.5
94	CCOC(=O)c1ccccc1N/C=C/C(=O)C(C)(C)C	87.0
95	CNCCCC12CCC(c3ccccc31)c1ccccc12	97.8&96.3&96.4
96	CC(C)(C)S(=O)(=O)Cc1nc(-c2ccc(C(F)(F)F)cc2)cs1	97.5
97	CCN(CC)S(=O)(=O)c1cc(C)ccc1OC	102.7
98	COc1ccc(Cl)cc1N(CC(=O)N1CCN(Cc2ccccc2)CC1)S(C)(=O)=O	94.9
99	CO[C@H](C(=O)[C@@H](O)[C@@H](C)O)[C@@H]1Cc2cc3cc(O[C@H]4C[C@@H](O[C@H]5C[C@@H](O)[C@H](O)[C@@H](C)O5)[C@@H](O)[C@@H](C)O4)c(C)c(O)c3c(O)c2C(=O)[C@H]1O[C@H]1C[C@@H](O[C@H]2C[C@@H](O[C@H]3C[C@](C)(O)[C@H](O)[C@@H](C)O3)[C@H](O)[C@@H](C)O2)[C@H](O)[C@@H](C)O1	92.7
100	O=C(COc1cccc(NC(=O)C(F)(F)C(F)F)c1)N1CCOCC1	95.3

From compound 76 up to 77, as listed above:
item	molecule	RVFV N-RNA inh
76	CCNC(=S)N1CCN(CC(=O)Nc2cc(Cl)cc(Cl)c2)CC1	96.8
77	O=C(c1cnn2cc(Br)cnc12)N1CCCc2ccccc21	107.9

Continued:
item	molecule	RVFV N-RNA inh
101	COCCNC(=O)c1cc2c(=O)n3cccc(C)c3nc2n(C)c1=N	96.6
102	CC1=CC(=C(C#N)C#N)C=C(c2ccccc2)O1	91.5
103	O=C(O)c1cc2cc(Cc3cccnc3)ccc2o1	97.0
104	CCCCn1cnc2cc(NCc3ccncc3)ccc21	100.7
105	Brc1c(Br)c(Br)c2n[nH]nc2c1Br	97.0&92.3
106	CN(C)C(=S)Nc1ccc(C(C)(C)C)cc1	86.2
107	CCS(=O)(=O)NCCCc1ccccc1	94.5
108	COC(=O)c1ccc(CSc2nc(N)cc(N)n2)cc1	93.3
109	Cc1nnc(SCC2=C(C(=O)O)N3C(=O)C(NC(=O)Cn4cnnn4)C3SC2)s1 (centres undefined)	98.5
110	COc1ccc(C2NN(Cc3ccccc3)C3C(=O)N(Cc4ccccc4)C(=O)C23)cc1 (centres undefined)	93.0
111	CN(c1ccccc1)S(=O)(=O)c1c[nH]c(=O)[nH]c1=O	106.7
112	CCON1C(=O)c2ccccc2C1=O	91.8
113	CCCCCC[C@@H]([C@@H](C)O)n1cnc2c(N)ncnc21	96.2
114	CCOC(=O)/C(C)=N/Nc1cc(C)cc(C)c1	94.2
115	O=C(CSc1nc(=O)n2ccccc2n1)Nc1ccccc1	100.3
116	COc1ccc(Nc2c(C#N)c(C)nn2-c2ccccc2)cc1	92.4
117	COC(=O)c1cc(=O)nc(NC(=O)Nc2c(-c3c(Cl)cccc3Cl)noc2C)s1	92.6
118	Cc1cccc(OCCSC(N)=S)c1	102.1
119	O=S(=O)(Nc1nc2ccccc2nc1NCc1ccco1)c1ccc(F)cc1	92.9
120	C#CCOC(=O)Nc1cnc(N(C)C)c(C(F)(F)F)c1	97.7
121	O=C(OCC(F)(F)C(F)F)c1ccc2ccccc2c1	99.6
122	C/C(=N\O)c1ccc2c(c1)Cc1ccccc1-2	100.9
123	CCOP(=S)(OCC)N1CCOCC1	85.8
124	O=c1cc(-c2ccc(F)cc2)c2c([nH]1)Oc1c(nc(-c3ccccc3)[nH]c1=O)O2	88.6
125	C[C@]12CCC3[C@@H](CC[C@@]45O[C@@H]4C(O)=C(C#N)C[C@]35C)C1CC[C@@H]2O (some centres undefined)	105.1
126	O=c1cc(-c2ccc(O)cc2)oc2cc(O)cc(O)c12	96.7
127	Cc1ccc(SC(C)c2nc(-c3ccncc3)no2)cc1 (centres undefined)	93.3
128	COC(=O)C1=C(NC(=O)c2ccc(S(=O)(=O)N3CCCCC3)cc2)CCS1	97.8
129	Cc1ccc(CNC(=S)N2CCOCC2)cc1	91.8
130	CC(C)n1c(NCc2ccccc2)nc2c1c(=O)[nH]c(=O)n2C	101.5
131	NC(=O)COc1ccc(S(=O)(=O)N2CCCC2)cc1Cl	92.1
132	CCC(=O)Nc1ccccc1C(=O)OCC(=O)c1ccccc1	84.3
133	CCOC(=O)c1c(-c2ccccc2)n(C)c2ccc(O)cc12	103.8
134	O=c1c2cccc3c2c(nn1CCN1CCCCC1)-c1ccccc1-3	103.6
135	O=C(c1ccc(F)cc1)C1CCN(CCn2c(=S)[nH]c3ccccc3c2=O)CC1	94.0
136	CS(=O)(=O)NCCS(=O)(=O)N1CCN(c2ccccc2)CC1	97.1
137	COC(=O)c1c(C)nn(-c2ccc(F)c(Cl)c2)c1-c1cc(C)on1	74.8

Reprinted at random: 3 records from the list.
item	molecule	RVFV N-RNA inh
130	CC(C)n1c(NCc2ccccc2)nc2c1c(=O)[nH]c(=O)n2C	101.5
29	Nc1nc(CSc2nnc(-c3ccccc3O)n2Cc2ccccc2)cs1	91.4
11	NS(=O)(=O)c1cccc2c1c([N+](=O)[O-])cc1nc(O)c(O)nc12	91.6
